# Sa growth inh: S. aureus growth inhibition | S. aureus RN4220 growth, OD600, 20 h, 42 °C; active compounds read low | relative growth, % (test concentration not listed) | 0.53% of 170,000 active;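 active = growth at 42 °C up to 50% and 20 or more points under that at 30 °C, or under 10% at both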;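 note: 300 nL library stock went into each well; scaled to the means of positive and negative controls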
# HCMV UL50-53 inh: disrupts HCMV UL50-UL53 complex binding | HTRF UL50-UL53 interaction, normalized percent inhibition | inhibition, % (concentration not given with the values) | 0.15% of 190,000 active;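 active = both replicates at 50% or more, plus weaker picks with an unusually low signal ratio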;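 note: stock transfer was 100 nL into about 20 µL; 0% = negative control wells and 100% = wells with untagged competitor protein; inactives centre near -12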
# GIV-Gai inh: GIV-Galpha-i interaction inhibition; 0.42% of 210,000 active; percent of control (FP), % (concentration not given with the values); AID 1224905; P08753; Galpha-i3/FITC-GIV peptide fluorescence polarization, 90 min; active compounds read low; scaled: aluminum fluoride 0%, vehicle 100%;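 active = replicate mean at 85% of control or lower, very high polarization wells dropped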;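 note: wells of about 15 µL received 100 nL stock; the first replicate is given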
# Target sequence (P08753 whole entry, looked up): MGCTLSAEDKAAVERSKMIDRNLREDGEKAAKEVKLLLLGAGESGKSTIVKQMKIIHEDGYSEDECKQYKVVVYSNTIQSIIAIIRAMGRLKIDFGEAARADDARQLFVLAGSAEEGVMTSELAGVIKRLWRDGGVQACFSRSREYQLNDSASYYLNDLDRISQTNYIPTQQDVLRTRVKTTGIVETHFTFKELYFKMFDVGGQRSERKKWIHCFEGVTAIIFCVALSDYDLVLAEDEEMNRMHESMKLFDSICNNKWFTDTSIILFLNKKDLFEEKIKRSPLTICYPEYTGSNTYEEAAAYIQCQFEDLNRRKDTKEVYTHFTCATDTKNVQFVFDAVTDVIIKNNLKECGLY
# Sa growth inh second temp: also measured in Sa growth inh; calls as there; relative growth, %; measured here: growth at 30 °C;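 optical density after 20 h as mean of two plates; 100% = untreated growth and lower means inhibition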
# An asterisk follows results filed as active; x = no result given. An unsorted share of the library (roughly 0.8% active in at least one column).
SMILES,Sa growth inh,Sa growth inh second temp,HCMV UL50-53 inh,GIV-Gai inh
CCCCSCCCNC(=O)c1cn(CC)c2ccc(S(=O)(=O)N3CCCCCC3)cc2c1=O,94,84,-31,101
O=C1CC(Cc2ccccc2)N=C(NC(=O)c2ccccc2)N1 (stereo unspecified),93,97,-8,113
COc1ccc(NC(=O)C2CC(=O)N(C)C(=Nc3ccc(Cl)c(C(F)(F)F)c3)S2)cc1 (stereo unspecified),x,x,3,108
COc1cccc(OC)c1C(=O)Nc1cc2c(cc1Sc1ccccc1)n(C)c(=O)n2C,x,x,-32,106
O=C(CNc1ccccc1)N/N=C/c1ccc(N2CCOCC2)cc1,96,99,-12,x
COc1cccc(-n2cnc3scc(-c4cccs4)c3c2=O)c1,123,100,-8,101
O=C(C1Nc2cc(F)ccc2S(=O)(=O)N1)N1CCN(c2cccc(Cl)c2)CC1 (stereo unspecified),x,x,-9,102
CCOC(=O)c1cccc(NS(=O)(=O)c2ccc3[nH]c4c(c3c2)CCCC4)c1,98,112,x,100
COc1ccc(-c2cc(=O)oc3c4c(ccc23)OCN(Cc2ccccc2)C4)cc1,116,89,-60,95
O=C(CN1C(=O)c2ccccc2C1=O)c1ccc(Cl)cc1,97,93,-28,x
O=C(O)c1cccn2nnnc12,77,81,2,101
Cc1nc(-c2ccc(C(=O)N3CCC(C(=O)Nc4ccc(Cl)cc4)CC3)cc2)no1,x,x,-26,103
Cc1ccc(NC(=O)CCS(=O)(=O)Cc2ccccc2)c(Br)c1,81,84,-10,94
CSc1ccc(C2c3c(oc4ccccc4c3=O)C(=O)N2CCCN2CCOCC2)cc1 (stereo unspecified),108,91,-36,100
CN1CCN(CCC(=O)Nc2cccc(F)c2)CC1,118,89,-10,108
CCC1=Nc2cc(C(=O)N3CCC(C)CC3)ccc2Sc2ccccc21,105,92,x,104
CCC(CC)C(=O)Nc1ccc2nc(SCC(=O)N3CCc4ccccc43)sc2c1,97,93,10,99
CNC(=S)N1CCc2c([nH]c3ccccc23)C1C(F)(F)F (stereo unspecified),97,81,10,105
O=C(CCc1nc2cccnc2n1-c1ccccc1)Nc1cccc(-c2ccno2)c1,106,90,-6,106
CCN(CC)c1cc(C)c2cc(NC(=O)C3CCCCC3)ccc2n1,93,81,-10,110
O=C(c1ccc(S(=O)(=O)c2ccc(Cl)cc2)nc1)N1CCN(c2ccccn2)CC1,x,x,-24,102
COc1ccc(C2CC(c3ccc(NS(C)(=O)=O)cc3)=NN2S(=O)(=O)c2ccc(OC)cc2)cc1 (stereo unspecified),x,x,-40,119
COCCNC(=O)CCCn1c(SCC(=O)Nc2cccc(C)c2)nc2c(sc3ccccc32)c1=O,110,86,-40,101
COC(=O)c1cc(OCC(=O)Nc2cccc3nsnc23)cc(C(=O)OC)c1,84,85,-30,x
CC1(C)CC(=O)C2=C(C1)Nc1ccccc1N1C(=O)c3ccccc3C21 (stereo unspecified),96,95,-34,95
OC(COC(C(F)(F)F)C(F)(F)F)CN1CCN(Cc2ccc3c(c2)OCO3)CC1 (stereo unspecified),91,92,-7,x
Cc1cn2c(=O)cc(COc3ccccc3NC(=O)C(C)C)nc2s1,x,x,5,103
O=C(Nc1ccc(Oc2ncnc3cc(Cl)ccc23)nc1)c1ccccc1,97,84,-26,104
Cc1cc(Cl)ccc1OCC(=O)Nc1ncc(Br)s1,79,96,16,x
CNCc1cnn(-c2ccccc2)c1,76,88,-23,x
CCOC(=O)Cn1c(Cl)c(/C=N/NC(=O)c2ccccc2)sc1=O,115,94,-53,110
S=c1n(CN2CCOCC2)nnn1C1CCCCC1,96,96,-12,x
Cc1ccc(CCNC(=O)c2ccc(CNS(=O)(=O)c3ccccc3)cc2)cc1,91,95,0,99
CCOc1ccccc1C1CC(=O)Nc2c1c(=O)n(C)c1ncnn21 (stereo unspecified),98,99,18,103
Cc1nn(CCC(N)=O)c2nc(-c3cccs3)cc(C(F)(F)F)c12,116,92,-30,x
Cc1ccc(C)c(CN2C(=O)c3ccccc3S(=O)c3ccc(C(=O)NCc4ccco4)cc32)c1 (stereo unspecified),107,105,-22,99
CS(=O)(=O)N(CC(=O)N1CCCCCC1)c1cc(Cl)cc(Cl)c1,104,82,-20,103
COc1cccc(C(O)c2nccn2Cc2ccccc2)c1OC (stereo unspecified),91,85,-26,x
CCc1ccc(S(=O)(=O)c2cn(C)c3cc(N4CCCCC4C)c(F)cc3c2=O)cc1 (stereo unspecified),87,84,x,113
CC1(C)CSC(=NCCc2ccccc2)N1,105,88,-10,x
O=C(Nc1cccc(F)c1)c1nc(Nc2ccccc2)c2ccccc2n1,x,x,-27,99
COc1ccc(N2C(=O)CSC2c2ccc3c(c2)OCO3)cc1 (stereo unspecified),92,85,-4,102
COc1ccc(-c2ccc(-c3noc(-c4ccccc4F)n3)c(OC)n2)cc1,99,96,-6,107
O=C(N=Nc1c(O)[nH]c2ccccc12)C1CC1c1ccccc1 (stereo unspecified),115,99,-53,100
CN(Cc1nc2cc(C(F)(F)F)ccc2c(=O)[nH]1)C1CCCCC1,117,92,3,x
Cc1cc(CN)c2[nH]c3c(c2c1)CCCC3,75,84,5,104
CCn1nc(C)c2c1c(=O)n(CCc1ccccc1)c(=O)n2CC(=O)N1CCCCC1C (stereo unspecified),x,x,-5,98
O=C(CSc1nnc(Nc2ccccc2)s1)NCC1CCCO1 (stereo unspecified),102,99,-31,x
CN(C)/C=C1\SCc2ccccc2C1=O,94,79,-18,124
CC(C)C(=O)Nc1nnc(S(=O)(=O)N(C)Cc2ccc(F)cc2)s1,105,89,x,104
CCn1c(O)c(/C=C2\C=Nc3ccc(Br)cc32)c(=O)[nH]c1=O,102,98,-11,101
COc1cccc(CSc2nc3c(-c4ccccc4)c[nH]c3c(=O)[nH]2)c1,x,x,-15,114
CN(C(=O)c1cccc(S(=O)(=O)N2CCCC2)c1)C1CCCCC1,102,87,-22,x
COCC(=O)N1CCN(c2cccc(Cl)c2)CC1,96,101,2,99
CC1=NN(C(=O)c2ccccc2Cl)C(O)(C2CCCCC2)C1 (stereo unspecified),98,103,-28,99
Cc1cc(=O)[nH]c(Nc2ccc(Br)cc2)n1,x,x,-22,108
CCc1ccc(NC(=O)Cn2c(C(=O)OC)cc3oc4ccccc4c32)cc1,90,90,x,109
COC(=O)c1c(COC(=O)c2cc(S(=O)(=O)N(C)C)ccc2N2CCOCC2)nc2ccccc2c1C,82,86,-15,x
COCCCNc1nc(CC(C)C)nc2c1nnn2Cc1ccccc1,117,85,-12,108
CN(C)c1cc[n+](Cc2ccccc2)cc1,113,118,11,105
# (continued)
SMILES,Sa growth inh,Sa growth inh second temp,HCMV UL50-53 inh,GIV-Gai inh
Cc1ccc(Nc2nnc(-c3ccccc3N)o2)cc1C,110,102,4,104
O=CN1CCCNCC1,102,90,-18,x
CCCCN1CC(c2nc3ccccc3n2CC(=O)N(C)c2ccccc2)CC1=O (stereo unspecified),x,x,3,106
Cc1nc(CN2CCN(C(=O)c3ccc(C(C)(C)C)cc3)CC2)cs1,109,87,1,102
Cc1nc2nc[nH]n2c(=O)c1NC(=O)CC12CC3CC(CC(C3)C1)C2,117,97,-1,107
CCn1c(=N)n(CC(=O)c2ccc(C)cc2)c2ccccc21,36,25,-32,x
Cc1ccc(Cn2ccc(NC(=O)c3cc(C)no3)n2)cc1,x,x,-26,101
CCCOc1ccc(C2Oc3ccc(Br)cc3C3CC(c4ccccc4)=NN32)cc1 (stereo unspecified),x,x,-12,104
CCn1cc(C(=O)NC2CCCCC2)c(=O)c2ccc(C)nc21,111,115,6,105
O=C1CN(Cc2nc3scc(-c4cccs4)c3c(=O)[nH]2)CCN1,81,93,-26,x
CCOC(=O)N1CCC(NC(=O)c2cc3cc4ccc(C)cc4nc3o2)CC1,86,88,-104,98
CC1CN(c2cc(=O)n(Cc3ccc(F)cc3)c(=O)[nH]2)CC(C)O1 (stereo unspecified),87,87,-32,104
CC(=O)c1ccc(NC(=O)CCn2cccn2)cc1,88,85,x,97
COc1ccccc1N1CCN(c2nc(CC(=O)O)nc3sc4c(c23)CCCC4)CC1,x,x,2,105
CCOc1ccc2nc(SCc3c(F)c(F)c(F)c(F)c3F)[nH]c2c1,96,74,-27,108

# Part of the list above, bar-delimited:
smiles | Sa growth inh | Sa growth inh second temp | HCMV UL50-53 inh | GIV-Gai inh
O=CN1CCCNCC1 | 102 | 90 | -18 | x
CCCCN1CC(c2nc3ccccc3n2CC(=O)N(C)c2ccccc2)CC1=O (stereo unspecified) | x | x | 3 | 106
Cc1nc(CN2CCN(C(=O)c3ccc(C(C)(C)C)cc3)CC2)cs1 | 109 | 87 | 1 | 102
Cc1nc2nc[nH]n2c(=O)c1NC(=O)CC12CC3CC(CC(C3)C1)C2 | 117 | 97 | -1 | 107

# (list continues)
SMILES,Sa growth inh,Sa growth inh second temp,HCMV UL50-53 inh,GIV-Gai inh
CCS(=O)(=O)c1ccc(-c2cccc(NC(=O)C3CC3)c2)nn1,101,82,-32,103
CCOc1ccc(CCNC(=O)c2ccc(-n3c(C)cc4c3CCCC4)cc2)cc1OCC,110,96,x,100
C=CCn1c(=O)c2ccc(C(=O)NCc3ccc4c(c3)OCO4)cc2n(CC(=O)Nc2ccc(F)c(Cl)c2)c1=O,x,x,-9,99
N#Cc1cc2c(nc1SCC(=O)N1CCCCC1)CCCC2,96,94,x,103
O=C(CC(c1ccccc1)c1cc(Br)ccc1O)NCCN1CCOCC1 (stereo unspecified),118,103,21,101
COc1ccc(C2C3=C(CC(c4ccc(O)cc4)CC3=O)Nc3onc(C)c32)c(OC)c1 (stereo unspecified),x,x,-11,112
COc1ccc(COc2ncnc3ccccc23)cc1F,94,89,-12,x
CCOc1ccc(S(=O)(=O)c2cn(CC(=O)Nc3ccc(C)cc3)c3ccc(F)cc3c2=O)cc1,x,x,-21,93
C=CCNc1nc(C(=O)OCC(=O)N2CC(C)OC(C)C2)cs1 (stereo unspecified),97,91,-10,x
N#CCCS(=O)(=O)c1ccccc1,113,98,2,x
COC(=O)CC1=CC(SCC(=O)Nc2cc(F)ccc2F)=Nc2ccccc2N1,x,x,-41,103
CCOC(=O)c1c(C)[nH]c(C)c1S(=O)(=O)N1CCC(C(=O)NCc2ccc(C)cc2)CC1,88,86,x,103
Cn1c(=O)oc2cc(Cl)c(C(=O)c3cc4c(cc3Cl)oc(=O)n4C)cc21,93,101,-9,105
CON(C)c1nc(Cl)nc(N(C)C)n1,107,108,5,100
O=C1c2cccnc2C(=O)N1Cc1ccc(S(=O)(=O)N2CCCN(Cc3ccc(F)cc3)C2)cc1,101,95,-27,109

# Single entries from above.
# CCS(=O)(=O)c1ccc(-c2cccc(NC(=O)C3CC3)c2)nn1 @ HCMV UL50-53 inh: -32
# O=C(CC(c1ccccc1)c1cc(Br)ccc1O)NCCN1CCOCC1 (stereo unspecified) @ HCMV UL50-53 inh: 21

# (listing goes on)
SMILES,Sa growth inh,Sa growth inh second temp,HCMV UL50-53 inh,GIV-Gai inh
Cc1ccc(CNC(=O)C2CCN(S(=O)(=O)N3CCC(C)CC3)CC2)cc1,110,92,x,100
CC(=O)c1nn(-c2ccc(OC(F)(F)F)cc2)nc1Nc1ccc(Cl)cc1,89,90,-28,103
O=C1CS/C(=N\N=C\c2ccccc2Cl)N1CC1CC1,103,92,-8,107
CC1CCc2c(sc3nnn(CC(=O)Nc4c(C(C)C)cccc4C(C)C)c(=O)c23)C1 (stereo unspecified),80,76,-33,107
CCOC(=O)c1cnn2c(-c3ccc(OCC)cc3)ccnc12,x,x,-40,104
COc1cc(C2c3c(oc4ccccc4c3=O)C(=O)N2Cc2ccccc2)ccc1O (stereo unspecified),85,96,x,98
COc1ccccc1CNC(=O)CSc1nc(-c2ccc(OC)c(OC)c2)cc(C(F)(F)F)n1,85,90,-10,100
CCN1CC=C2C(C#N)=C(N)C(C#N)(C#N)C(c3ccc(OC)c4ccccc34)C2C1 (stereo unspecified),109,103,-9,125
O=C(NC1CCCCC1)c1cccnc1C(=O)O,111,90,-7,102
Nc1nc(-c2ccc3c(c2)CCCC3)cs1,108,88,-33,x
COC(=O)[C@H](CC(N)=O)NC(C)=O,85,88,-16,104
Brc1ccc(-c2cc3c(SCc4ccccc4)nccn3n2)cc1,x,x,-22,112
CSc1sc(C(=O)NN)c2c1C1(CCC2)SCCS1,64,58,-26,98
O=C1NC(=O)C(Nc2ccccc2C(=O)O)S1 (stereo unspecified),90,92,-12,99
COc1ccc(C)cc1S(=O)(=O)N(C)CC(=O)N1CCN(c2cccc(Cl)c2)CC1,98,71,-19,101
CCN(CC)C(=O)COc1ccc(/C(C)=N/NC(=O)c2ccccc2O)cc1,74,92,-24,x
Cc1cc(C)cc(N2CC(C)(C)C2=O)c1,x,x,-20,96
CCOC(=O)c1c(C)[nH]c(C)c1S(=O)(=O)N1CCCC(C(=O)Nc2cccnc2)C1 (stereo unspecified),x,x,-17,106

# Four entries picked at random from the list so far:
SMILES,Sa growth inh,Sa growth inh second temp,HCMV UL50-53 inh,GIV-Gai inh
O=C1CS/C(=N\N=C\c2ccccc2Cl)N1CC1CC1,103,92,-8,107
COc1ccccc1CNC(=O)CSc1nc(-c2ccc(OC)c(OC)c2)cc(C(F)(F)F)n1,85,90,-10,100
COc1ccc(C)cc1S(=O)(=O)N(C)CC(=O)N1CCN(c2cccc(Cl)c2)CC1,98,71,-19,101
Nc1nc(-c2ccc3c(c2)CCCC3)cs1,108,88,-33,x
